gsp agonist – activates gsp, the McCune-Albright syndrome mutation; gsp mutant cells, cAMP HTRF, 30 min; control for the full effect not named in the record; Potency, µM (top dose mostly 76.9 µM), for the others: at the highest dose activation (cAMP increase), most hits filed as activators; hit rate 0.13% among 340,000; active = well fitted activation curve with a large enough effect; inconclusive = small, poorly fitted or top-dose-only effect, or another doubt; inactive = no such curve, though single readings can be large or run the other way; cell line not stated here;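 note: phosphodiesterase inhibitor Ro 20-1724 added with compounds to block cAMP breakdown; potency is the fitted concentration of half-maximal effect; nearly all actives have a fitted effect of over 60% in size; about a fifth of the inactives were tested at one dose only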
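Cells stably selected in G418 were plated at 2000/well, grown 16-24 hr, then given compounds in DMSO with the PDE inhibitor […] (300 uM solution added) for 30 min at 37C; cAMP was read by HTRF.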
TRPV1 potentiator – enhances activation of the human vanilloid receptor TRPV1; potentiation, % at 8.33 µM; TRPV1-expressing cells, Fluo-8 calcium influx, capsaicin EC20 potentiation; host cell line not named in the record; control for the full effect not named in the record; hit rate 0.02% among 320,000; active means potentiation above 80%; inconclusive means 30% to 80%; inactive means below 30%; note: 0% is about no effect
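Fluo-8 calcium influx in TRPV1-expressing cells, kinetic read (ex 480/em 520 nm). Compound added and read 3 min for agonist activity, followed by capsaicin at EC20 final and 2 min further read for enhancement.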
Menin MLL FP FL – displaces fluorescein MLL peptide from human menin. Fluorescence polarization, fluorescein-MLL peptide displacement from menin. FP activity change, % at 61.4 µM. 290,000 tested, under 10 active. AID 1766; inconclusive = falling polarisation curve, or a change in total fluorescence; inactive = total fluorescence flat and polarisation flat or rising; no compound was filed as active; the % refers to the polarisation; negative = inhibition;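 note: % of control where 0% means no effect; inhibitors lower the polarisation; unlabelled MLL peptide was the positive control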
ClpP mod – qHTS Assay for Activators of ClpP; purified B. subtilis ClpP, FRET peptide cleavage, 20 min; Potency, µM (top dose mostly 57.5 µM), for the others: at the highest dose activity change, negative = active; hit rate 1.9% among 340,000; AID 651965, 2013; active = well fitted falling curve with a large enough effect; inconclusive = small, poorly fitted or top-dose-only effect; inactive = no such curve, though single readings can be large or run the other way; note: potency is the fitted concentration of half-maximal effect; the source files actives as falling curves though it sought activators and does not explain the sign; nearly all actives have a fitted effect of over 65% in size; many hits overshoot -100%
Target sequence (P80244 whole entry, looked up): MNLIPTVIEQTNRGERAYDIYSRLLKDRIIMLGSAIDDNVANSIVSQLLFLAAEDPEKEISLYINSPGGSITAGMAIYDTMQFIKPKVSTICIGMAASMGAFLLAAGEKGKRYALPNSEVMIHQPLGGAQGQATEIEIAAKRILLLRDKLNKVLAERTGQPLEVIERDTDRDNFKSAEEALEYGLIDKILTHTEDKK
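ClpP 10 microg/mL final, pH 8 Tris/KCl buffer with BSA, glycerol, Tween-20; compound pinned in; FRET-FV substrate; RT 20 min; Ex320/Em430; ΔFRET vs ADEP 5.8 microM, DMSO, no enzyme.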
gsp antagonist – antagonizes gsp, the McCune-Albright syndrome mutation. AID 624288. gsp-mutant cells, cAMP HTRF, 30 min; control for the full effect not named in the record. hit rate 0.4% among 340,000. Potency, µM (titrated, usually from 76.9 µM), for the others: at the highest dose activity change, negative = inhibition, usual class: inhibitors; active = falling curve of any shape with a large fitted effect; inconclusive = falling curve, mostly with a smaller effect; inactive = flat or rising curve; cell line not stated here;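 note: intracellular cAMP measured with PDE inhibitor Ro 20-1724 present during compound exposure; potency is the fitted concentration of half-maximal effect; % is set by controls: 0 for no effect and ±100 for the full control effect; nearly all actives have a fitted effect of over 65% in size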
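Cells in G418 medium, seeded 16-24 h, 37C; buffer exchange to DPBS + 1 mM CaCl2, 0.5 mM MgCl2, 0.05% BSA; cpds in DMSO + […] (300 uM stock), 30 min 37C; HTRF cAMP detection.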
D2 PAM – positive allosteric modulators of human D2 dopamine receptor | P14416 | DiscoveRx D2 beta-arrestin cells, luminescence, 90 min; 100% = 57 uM dopamine signal | potentiation, % (concentration not given with the values) | hit rate 0.23% among 360,000 | AID 624464; active = potentiation of 50% or more; inconclusive = 30% to 50%; inactive = 30% or less;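 note: compound concentration not given in the record; tested on top of an EC20 dose of dopamine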
Target sequence (P14416 whole entry, looked up): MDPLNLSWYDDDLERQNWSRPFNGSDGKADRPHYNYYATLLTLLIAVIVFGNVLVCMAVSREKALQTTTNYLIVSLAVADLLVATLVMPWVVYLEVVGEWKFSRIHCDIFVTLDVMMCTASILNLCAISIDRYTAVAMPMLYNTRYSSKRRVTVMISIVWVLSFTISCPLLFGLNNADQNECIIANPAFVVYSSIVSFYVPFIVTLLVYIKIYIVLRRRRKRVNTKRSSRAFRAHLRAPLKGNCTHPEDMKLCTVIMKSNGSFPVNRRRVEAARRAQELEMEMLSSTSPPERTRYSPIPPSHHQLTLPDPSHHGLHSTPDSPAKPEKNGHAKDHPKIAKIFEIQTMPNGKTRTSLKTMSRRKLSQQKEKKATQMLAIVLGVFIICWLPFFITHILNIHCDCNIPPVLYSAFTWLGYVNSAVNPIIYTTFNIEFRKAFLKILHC
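PathHunter beta-arrestin assay in DiscoveRx D2 cells. Compounds were added with an EC20 of dopamine (50 nM final) for 90 min at 37 deg C. Luminescence was read 1 h after detection reagent, with 57 uM dopamine as the EC100 control.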
Sfp inh – blocks B. subtilis Sfp PPTase activity; Biochemical Sfp PPTase activity, qHTS; Potency, µM, inactives show max response, negative = inhibition, hits mostly inhibitors; hit rate 3.5% among 310,000; Q9F4F7; active = well fitted inhibition curve with a large enough effect; inconclusive = small, poorly fitted or top-dose-only effect, or another doubt; inactive = no such curve, though single readings can be large or run the other way;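 note: the enzyme is Sfp with the accession as filed and its product quenches rhodamine fluorescence; potency is the fitted concentration of half-maximal effect; 0% = enzyme reaction without inhibitor and -100% = no enzyme wells; top concentration of the series not given in the record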
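Step 1, compound plus 15 nM Sfp-PPTase, 15 min, room temperature. Step 2, add rhodamine-CoA (5 uM) and BHQ-2-YbbR (12.5 uM). Step 3, read 525/598 nm fluorescence at 0 and 30 min.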
Numbers without * were called inactive; ? = inconclusive; . = no result given; & = joins results of further samples; [ ] = another dose, or the depositor's remark. An unsorted share of the library. Share with any hit: about 5.1%.

SMILES	gsp agonist	TRPV1 potentiator	Menin MLL FP FL	ClpP mod	gsp antagonist	D2 PAM	Sfp inh
COCC(=O)n1nc(NCc2ccc(OC)cc2)nc1NCc1ccc(OC)cc1	-3%	3	2.2	0.4%	-6%	13	8%
Cc1cc(C)cc(NC(=O)c2cc(=O)c3ccccc3o2)c1	-8%	27	2.0	.	-5%	2	-15%
Cc1ccc(Cn2c(C(=O)O)cc3sccc32)cc1	2%	8	0.4	-18%	-2%	0	4%
O=C(COC(=O)c1nn(CCO)c(=O)c2ccccc12)Nc1ccc(Cl)c(Cl)c1	0%	.	.	-4.0%	?	-11	.
Cn1c(=O)oc2cc(S(=O)(=O)N3CCCC(C(=O)N4CCn5c4nc4ccccc45)C3)ccc21 (stereo not given)	.	-3	1.1	.	.	.	2%
Fc1cccc(Cl)c1Cc1noc(/C=C/c2ccccc2)n1	-6%	?	1.2	0.0%	2%	-2	-3%
CC(=O)Nc1sc(N/N=C/c2ccccc2F)nc1-c1ccc(C)cc1	37%	0	7.7	-1.9%	-19%	15	-21%
COC(=O)c1sc2ncn(-n3c(C)ccc3C)c(=O)c2c1C	-38%[inhibitor]	-6	3.0	2.4%	7%	-1	-2%
COc1ccc(C(CNC(=O)c2cccc(S(=O)(=O)Nc3ccc(F)cc3)c2)N2CCCC2)cc1 (stereo not given)	0%	.	.	-2.3%	5%	-28	.
O=C(Nc1ccc(F)c(Cl)c1)Nc1ccc(Cl)cn1	11%	4	-1.9	-0.4%	-6%	-8	8%
CCN(CC)S(=O)(=O)c1cc(-c2nnc(-c3ccc(Br)cc3)o2)ccc1Br	-7%	15	2.0	-7.2%	-7%	1	6%
CC1(C)SC(=S)N(NC(=O)Nc2ccccc2)C1N(O)C(=O)Nc1cccc2ccccc12 (stereo not given)	-6%	-2	0.6	-14%	3%	-8	2%

Next section; it opens with the three that closed the last part.
SMILES	gsp agonist	TRPV1 potentiator	Menin MLL FP FL	ClpP mod	gsp antagonist	D2 PAM	Sfp inh
O=C(Nc1ccc(F)c(Cl)c1)Nc1ccc(Cl)cn1	11%	4	-1.9	-0.4%	-6%	-8	8%
CCN(CC)S(=O)(=O)c1cc(-c2nnc(-c3ccc(Br)cc3)o2)ccc1Br	-7%	15	2.0	-7.2%	-7%	1	6%
CC1(C)SC(=S)N(NC(=O)Nc2ccccc2)C1N(O)C(=O)Nc1cccc2ccccc12 (stereo not given)	-6%	-2	0.6	-14%	3%	-8	2%
CCC(=O)N1CCc2cc(S(=O)(=O)NCCC(=O)N3CCN(c4ccccc4)CC3)ccc21	-6%	0	.	1.0%	6%	-4	6%
Cc1ccc(S(=O)(=O)N2CCCCC2)cc1NC(=O)CCNC(=O)c1ccccc1Cl	-31%[inhibitor]	.	.	-0.5%	.	0	.
COc1cc([N+](=O)[O-])ccc1NC(=O)CSc1nnc(C)c(C)n1	5%	-2	3.5	-1.6%	-9%	1	-4%
COc1cc(CNn2nnnc2N)cc(Br)c1OCC(=O)NC(C)(C)C	-19%	-21	1.6	-1.9%	6%	-1	9%
CCN(C(=O)COC(=O)CN(C)S(=O)(=O)c1ccc(NC(C)=O)cc1)C1CCS(=O)(=O)C1 (stereo not given)	-7%	4	1.0	-1.2%	11%	0	-4%
OCc1cccc(Nc2ncnc3sc4c(c23)CCCCC4)c1	-2%	-9	-5.1	.	-8%	1	?
O=C(COC(=O)c1ccc(Br)cc1)NCCC1=CCCCC1	4%[15.4 µM]	-10	-0.6	.	0%	-2	23%
Cc1ccc(N/N=C/c2ccncc2)cc1	-1%	-5	8.3	-1.9%	-6%	-30	14%
CN1CCC(N(C)S(=O)(=O)c2ccc(NC(=O)COc3ccc([N+](=O)[O-])cc3)cc2)CC1	44%	12	.	-8.9%	7%	-15	.
Cc1ccc(-c2csc(NC(=S)NC(=O)/C=C/c3ccco3)n2)cc1	?	13	2.9	-0.5%	10%	-5	-7%
CCN1CCCC1CNCc1cccc(OC)c1OCc1ccccc1 (stereo not given)	3%	12	2.5	1.0%	5%	-25	-6%
CC(C)(C)OC(=O)NCCCC[C@H](NC(=O)c1nc[nH]c1C(=O)NC(c1ccccc1)c1ccccc1)C(=O)OC(C)(C)C	-4%	-1	0.7	-7.5%	8%	-5	16%
O=C(Nc1ccc(Cl)cc1)Nc1nc(-c2ccccc2)cs1	11%	17	-8.6	1.7%	10%	0	3%
O=C(C1CCOCC1)N1CCCC(N2CCN(c3cccc(C(F)(F)F)c3)CC2)C1 (stereo not given)	3%	15	.	0.1%	-4%	-22	5%
COc1ccc(Cl)cc1NC(=O)NCC1CCN(C(=O)OC(C)(C)C)CC1	-10%[15.4 µM]	-27	8.1	-6.9%	-20%	-16	0%
C=CCOc1cccc(C(=O)/C=C2/C(=O)Nc3ccccc32)c1	24%	4	-2.2	0.1%	0%	-5	56µM*
CCN(CC)c1ccc(C2CC(=O)NC3=C2C(=O)CC(C)(C)C3)cc1 (stereo not given)	?	-16	3.3	-7.9%	-16%	-3	-2%
CCn1c(CC(=O)Nc2ccc(F)cc2)nnc1SCC(=O)NC1=NCCS1	-32%[15.4 µM]	9	-9.0	.	11%	-4	12%
CCOc1ccc(CN2CCN(Cc3cnc(N4CCOCC4)s3)CC2CCO)cc1 (stereo not given)	27%	-1	3.1	-2.8%	9%	-7	19%
CCCn1c(=O)[nH]c(=O)c2c1nc(-c1ccccc1)n2CCN1CCOCC1	25%	27	6.5	-8.3%	0%	1	-6%
CCOc1ccccc1NC(=O)CN1C(=O)NC(Cc2c[nH]c3ccccc23)C1=O (stereo not given)	-32%[inhibitor]	23	.	-0.3%	-1%	-4	.
Cn1cnnc1SCc1nnc(-c2ccccc2Br)o1	-5%	2	-0.7	2.0%	1%	-2	17%
CC(O)CNc1nc2c(c(=O)n(C)c(=O)n2C)n1CCc1ccccc1 (stereo not given)	25%	-6	1.2	-0.9%	9%	-3	17%
O=C(NCc1cccs1)c1ccc2ccccc2n1	27%	-29	0.3	.	-5%	-6	4%
CCCOc1ccc(C(=O)N/N=C/c2c[nH]c3ccc(Br)cc23)cc1	?	7	-11	.	?	-2	8%
C=CCN=C(NC#N)SCC(=O)c1cccc(OC)c1	-19%	9	1.4	0.1%	0%	-15	-17%
C=CCSc1nnc(-c2ccccc2NC(=O)CC)c(=O)[nH]1	-39%[inhibitor]	-2	-0.7	-0.6%	10%	-19	19%
Cc1n[nH]c(C)c1CNCc1c(C(=O)N2CCCCCCC2)nc2ccc(Cl)cn12	-55%[inhibitor]	-10	1.0	-9.7%	6%	-14	14%
COc1ccc(C(C(=O)NC2CCCC2)N(CCC(C)C)C(=O)CCC(=O)Nc2cc(C)on2)cc1 (stereo not given)	-6%[15.4 µM]	-4	.	.	-6%	2	5%
O=C(O)C1C2C=CC(O2)C1C(=O)Nc1ccccc1C(F)(F)F (stereo not given)	-5%	2	2.2	1.0%	16%	-6	28µM*
Cc1ccc(NC(=O)c2cc([N+](=O)[O-])ccc2N2CCOCC2)cc1S(=O)(=O)N1CCOCC1	?	0	.	1.1%	-7%	-34	-2%
O=C(c1cccs1)n1nc(NCc2ccccc2)nc1NCc1ccccc1	-10%[15.4 µM]	-10	-0.2	-4.3%	-7%	-10	-2%
COc1ccc(OCC(=O)NNc2nc3ccccc3s2)cc1	6%[15.4 µM]	19	-1.6	.	1%	-5	7%
CC1Cc2cc(S(=O)(=O)N3CCC(C(=O)NCc4ccco4)CC3)ccc2N1C(=O)C1CCC1 (stereo not given)	?	-7	-0.1	.	-6%	4	7%
O=C(CNC(=O)c1ccccc1F)Nc1ccc2c(c1)OCO2	2%	.	.	-0.7%	3%	-3	.
Cc1ccc(S(=O)(=O)N(CCCc2c(C)nc(N)[nH]c2=O)Cc2ccc([N+](=O)[O-])cc2)cc1	-43%[inhibitor]	.	.	-0.1%	.	-13	.

As entered above.
gsp antagonist result of `CC1Cc2cc(S(=O)(=O)N3CCC(C(=O)NCc4ccco4)CC3)ccc2N1C(=O)C1CCC1` (stereo not given) is entered as -6%
Sfp inh result of `O=C(c1cccs1)n1nc(NCc2ccccc2)nc1NCc1ccccc1` is entered as -2%
Sfp inh result of `CCCOc1ccc(C(=O)N/N=C/c2c[nH]c3ccc(Br)cc23)cc1` is entered as 8%
gsp antagonist result of `C=CCSc1nnc(-c2ccccc2NC(=O)CC)c(=O)[nH]1` is entered as 10%
ClpP mod result of `Cc1n[nH]c(C)c1CNCc1c(C(=O)N2CCCCCCC2)nc2ccc(Cl)cn12` is entered as -9.7%

(next part)
SMILES	gsp agonist	TRPV1 potentiator	Menin MLL FP FL	ClpP mod	gsp antagonist	D2 PAM	Sfp inh
CCOC(=O)CSc1nnc(NC(=O)c2cccc([N+](=O)[O-])c2)s1	-30%[inhibitor]	7	4.8	-2.7%	?	4	11%
CCOc1ccc(Oc2ccccc2NC(=O)CN2C(=O)NC3(CCCC3)C2=O)cc1	-8%[15.4 µM]	13	.	1.1%	-5%	-1	.
Cc1ccc(NS(=O)(=O)c2ccc3c(c2)n(C)c(=O)n3C)c(C)c1	-53%[inhibitor]	13	-0.6	-1.0%&-7.5%	2%	-2	3%
O=C(CCSc1ccc(Cl)cc1)Nc1cccnc1	3%	-19	5.9	1.0%	-4%	-5	13%
CN(C)C(=C(C#N)C#N)N1CCN(c2ccc(Cl)c(Cl)c2)CC1	-1%	.	0.1	-0.1%	?	13	-3%
Cc1ccc(CNC(=O)c2ccc(CNS(=O)(=O)c3ccc4c(c3)C(C)(C)C(=O)N4C)cc2)o1	?	5	1.3	-1.7%	-5%	-6	50µM*
CCOC(=O)c1c(-c2ccccc2)csc1NC(=O)C(C)NCCCN1CCOCC1 (stereo not given)	1%	-2	2.1	-5.0%	5%	-21	40µM*
COc1ccc(NC(=O)COC(=O)c2ccc3ccccc3n2)cc1	17%	-2	.	-3.8%	-4%	-18	.
COc1ccc(-c2csc3nc(-c4ccccc4OC)oc(=O)c23)cc1	4%	-3	4.2	.	-5%	-28	0%
COc1ccccc1N1N=C(c2ccc([N+](=O)[O-])cc2)CC1c1ccccc1 (stereo not given)	?	9	?	.	11%	-3	-3%
